CDC25B-CDK2 inh – primary biochemical HTRF screen for blockers of M-phase inducer phosphatase 2 binding to CDK2/cyclin A | P30305+P24941 | HTRF CDC25B-CDK2/CyclinA binding, anti-His/anti-Flag; stronger effect = higher value | z-score (concentration not given with the values) | 0.72% of 94,000 active;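 note: score is relative to mean and SD of negative controls; strong numbers were not always called active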
HIV TAR-Tat – TAR RNA-Tat peptide displacers, HIV-1, primary screen, biochemical, FRET, FAM/TAMRA-labeled Tat. 0.6% of 100,000 active. AID 1259389, 2018. HIV-1 TAR RNA, Tat peptide displacement FRET; stronger effect = higher value. z-score (concentration not given with the values);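 note: score is relative to mean and SD of negative controls; some compounds called inactive have numbers as strong as hits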
* hit, by the source's call; nt = not tested or not shown.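 Rule for the calls: active = z-score from 3 up in half or more of its runs; inactive = the rest.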

Sequence of screens – CDC25B-CDK2 inh	HIV TAR-Tat
> COc1ccc(C2CC(=O)C3=C(C2)NC(=O)CC3c2ccc(OC)c(OC)c2)cc1OC (stereo not drawn)
 : -0.84	-0.68
> CCc1nnc(NC(=O)CSc2nccn2Cc2ccco2)s1
 : nt	1.01
> O=C(c1cc(-c2ccco2)[nH]n1)N1CCN(c2ccc(Cl)cc2)CC1
 : nt	-1.41
> CC(C)c1nn2c(=O)c(NC(=O)c3ccccc3Cl)cnc2s1
 : -1.63	-0.45
> CCCc1[nH]c(Br)nc1-c1ccccc1
 : -1.65	1.98
> Cc1nn(Cc2ccccc2)c2[nH]c(=O)cc(C(F)(F)F)c12
 : nt	1.85
> CN(C)CCNC(=O)C(=O)NCC(c1ccc2c(c1)OCO2)N1CCOCC1 (stereo not drawn)
 : nt	1.53
> CCOC(=O)c1sc(Cl)nc1C
 : -0.01	0.54
> CCN(CC)C(=O)CSc1nc2c(sc(=S)n2-c2ccccc2)c(=O)[nH]1
 : -1.92	nt
> COc1ccc(C2c3c(oc4cc(C)cc(C)c4c3=O)C(=O)N2CCCOC(C)C)cc1OC (stereo not drawn)
 : -2.01	2.46
> Cc1ccc(O)c(-c2n[nH]c3c2C(c2ccc(F)cc2)N(Cc2cccnc2)C3=O)c1 (stereo not drawn)
 : -1.55	2.75
> CCOC(=O)c1nn(-c2ccccc2)c(=O)c2c(N)scc12
 : 19.2*	-4.87
> Cc1ccccc1CN1CCN(c2ncnc3c2cnn3Cc2ccc(Cl)cc2)CC1
 : nt	-1.11
> CCCN(CCC)S(=O)(=O)c1cc(F)ccc1CN1C(=O)c2cccnc2C1=O
 : nt	-1.36
> OCCCCCCN(Cn1nnc2ccccc21)Cn1nnc2ccccc21
 : -1.64	nt
> COc1ccc(Br)cc1CN1CCN(Cc2c[nH]c3ccccc23)CC1
 : -2.04	nt
> COc1ccc(Oc2ccc(C(F)(F)F)cc2NS(=O)(=O)c2cccs2)cc1
 : -0.65	nt
> CCOc1ccc(NS(=O)(=O)c2cc(Br)cnc2N)cc1
 : -0.2	1.5
> COc1cc2c(cc1OC)C(C)N(C=C(C#N)C#N)CC2 (stereo not drawn)
 : -1.63	nt
> O=C1Cc2cc(S(=O)(=O)N3CCN(c4cccc(Cl)c4)CC3)ccc2N1
 : 2.64	-0.05
> Cc1ccc(C2/C(=C(\O)c3ccc(F)cc3)C(=O)C(=O)N2Cc2cccnc2)cc1 (stereo not drawn)
 : -1.1	-0.07
> COC(=O)CSCCc1nc(-c2ccc([N+](=O)[O-])cc2)cs1
 : -1.59	nt
> CCS(=O)(=O)NCc1csc(-c2ccccc2)n1
 : -0.07	-0.75
> CCOc1cccc(N2CC(O)=C(c3nc4ccccc4s3)C2=N)c1
 : -1.46	2.08
> O=C(NCCN1CCN(c2ccccc2)CC1)Nc1ccccc1F
 : -2.51	-0.6
> Cc1onc(-c2ccccc2)c1C(=O)Nc1nnc(C(C)C)s1
 : 0.18	nt
> C=CCSc1nnc2cc(C)c3ccccc3n12
 : -0.8	-0.85
> CC(C)CC(=O)Nc1nnc(S(=O)(=O)N(C)Cc2ccco2)s1
 : 1.07	-0.18
> Cc1ccc(C(=O)CC2(O)C(=O)Nc3ccc(C)cc32)c(C)c1 (stereo not drawn)
 : 1.54	-1.24
> Cc1[nH]n(-c2nc3ccccc3[nH]2)c(=O)c1CCC(C)C
 : nt	2.14

Next section:
Sequence of screens – CDC25B-CDK2 inh	HIV TAR-Tat
> Cn1cc(S(=O)(=O)N2CCOCC2)cc1C(=O)NCCC1=CCCCC1
 : nt	2.3
> Cc1c(C(=O)NCc2ccccn2)sc2nc3n(c(=O)c12)CCC3
 : nt	1.61
> CCc1ccc(-n2nnc(S(=O)(=O)c3ccc(C)cc3)c2N)cc1
 : -1.39	0.65
> C=CCN(CC=C)S(=O)(=O)c1ccc(C(=O)N2CCCC2)cc1
 : -0.38	1.09
> COC(OC)c1ccc(C#N)c(SCC(=O)Nc2ccc(C(F)(F)F)cc2)n1
 : -1.24	nt
> CCCCSc1nc2c(c(=O)[nH]1)C(c1cccc(F)c1)C(C(=O)OCC)=C(C)N2 (stereo not drawn)
 : -1.38	-1.42
> CC1(C(=O)NC2CCCCC2)Cn2c(cc3sccc32)C(=O)N1C1CCCCC1 (stereo not drawn)
 : -1.72	1.21
> O=C(NCCn1nc(-c2ccccc2)ccc1=O)c1ccc(Br)cc1
 : nt	1.08
> O=C(Nc1nc2ccc(F)cc2s1)c1nn(-c2ccc(F)cc2)ccc1=O
 : -0.61	-0.37
> Clc1ccc(-c2nn3c(Cn4nnc5ccccc54)nnc3s2)cc1
 : 1.58	2.12
> O=C(c1nc(CS(=O)(=O)c2ccccc2)no1)N1CCN(C2CCCCC2)CC1
 : nt	0.5
> CCOC(=O)N/N=C(\C)C12CC3CC(CC(C3)C1)C2
 : -0.65	nt
> CCOC(=O)C1=C(C)Nc2nc(SCc3ccccc3)[nH]c(=O)c2C1c1cccnc1 (stereo not drawn)
 : -1.2	nt
> O=C(C1CCN(c2nc3ccccc3n3cccc23)CC1)N1CCN(c2ccccc2)CC1
 : nt	-0.54
> O=C(CSc1nc2ccccc2c(=O)n1CC1CCCO1)NCc1ccco1 (stereo not drawn)
 : nt	-0.36
> CCOc1ccc(N2C(=O)CC(Nc3ccc(N4CCOCC4)cc3)C2=O)cc1 (stereo not drawn)
 : 0.3	-0.97
> Cc1cc2c(s1)CCc1cc(C(=O)NC3CCCC3)sc1-2
 : nt	0.42
> Cc1ccc(Nc2nc3ccccc3n3c(C)nnc23)cc1
 : -1.21	1.06
> O=c1[nH]c(-c2ccc(O)cc2)nc2sc3c(c12)CCCC3
 : 1.34	nt
> COCCNc1ncc(C(=O)OC)c2ccccc12
 : nt	0.16
> O=C(Nc1nsc(-c2ccccc2)n1)c1ccc(F)cc1
 : 1.52	2
> COc1ccc(N(C)C(=O)c2noc3c2CSc2ccccc2-3)cc1
 : -0.78	1.98
> CC1CN(c2ccc(Br)cc2)c2nc3c(c(=O)n(CC(=O)O)c(=O)n3C)n2C1 (stereo not drawn)
 : -2.75	2.06
> Cc1ccc(C(=O)Nc2cc3c(oc2=O)CC(C)(C)CC3=O)cc1
 : -4.64	-0.82
> O=S(=O)(c1ccc(-n2cccn2)cc1)N1CCN(C2c3ccccc3-c3ccccc32)CC1
 : -0.49	nt
> Cc1nn(C)c(C)c1CNC(=O)Nc1ccccc1Br
 : nt	-0.62
> CCOC(=O)N1CCN(C(=O)c2oc3ccc(S(=O)(=O)N4CCCCC4)cc3c2C)CC1
 : nt	0.99
> O=C(CSc1nc2sc3c(c2c(=O)[nH]1)CCCC3)N1CCCC1
 : -0.57	nt
> COc1cc(OC)cc(-c2nc3n(n2)C(c2cc(OC)ccc2OC)C(C(N)=O)=C(C)N3)c1 (stereo not drawn)
 : -1.61	0.5
> CCc1nn(CC(=O)NCCCN2CCC(N3CCCCC3)CC2)c(=O)c2cc3sc(C)cc3n12
 : -1.06	-0.76

Retrieved one by one from the list above, six records:
Sequence of screens – CDC25B-CDK2 inh	HIV TAR-Tat
> COCCNc1ncc(C(=O)OC)c2ccccc12
 : nt	0.16
> O=C(Nc1nsc(-c2ccccc2)n1)c1ccc(F)cc1
 : 1.52	2
> COC(OC)c1ccc(C#N)c(SCC(=O)Nc2ccc(C(F)(F)F)cc2)n1
 : -1.24	nt
> O=C(c1nc(CS(=O)(=O)c2ccccc2)no1)N1CCN(C2CCCCC2)CC1
 : nt	0.5
> Cn1cc(S(=O)(=O)N2CCOCC2)cc1C(=O)NCCC1=CCCCC1
 : nt	2.3
> O=C(NCCn1nc(-c2ccccc2)ccc1=O)c1ccc(Br)cc1
 : nt	1.08

Additional compounds:
Sequence of screens – CDC25B-CDK2 inh	HIV TAR-Tat
> O=C(CCc1nnc2ccc(N3CCCC3)nn12)NCc1ccc(CN2CCOCC2)o1
 : nt	0.77
> NC(=O)c1nc(-c2cccc(F)c2)nc2c1[nH]c(=O)n2CC1CCCO1 (stereo not drawn)
 : nt	0.98
> O=c1cc2nc(-c3ccccc3Cl)nc(SCc3cc(=O)n4c5c(sc4n3)CCCC5)n2[nH]1
 : nt	0.04
> COc1ccc(OC)c(C(c2c(C)[nH][nH]c2=O)c2c(C)[nH][nH]c2=O)c1
 : -0.37	0.62
> CCOC(=O)c1cn[nH]c1S(=O)(=O)Nc1ccc(OCC)cc1
 : nt	1.38
> CCCCOC(=O)c1cccc(NC(=O)c2cc3ccccc3oc2=O)c1
 : -2.6	nt
> Cc1ccc(-c2onc(C)c2C)cc1S(=O)(=O)NCCCc1ccccc1
 : nt	0.43
> Cc1ccccc1C1NCCN=C1NCc1ccccc1Cl (stereo not drawn)
 : nt	-1.66
> Cc1c(OCC(=O)OCC(C)C)ccc2c3c(c(=O)oc12)CCC3
 : -2.7	nt
> O=C(OC1CCCCC1)c1ccc2c(c1)C1C=CCC1C(C(=O)O)N2 (stereo not drawn)
 : -0.75	nt
> O=C(c1ccc(S(=O)(=O)Nc2ccc3c(c2)OCCO3)s1)N1CCCC1
 : nt	1
> CCC(C)c1nn2c(=O)c(NC(=O)c3ccc(Cl)cc3)cnc2s1 (stereo not drawn)
 : -0.46	1.63
> O=C(CSc1nnc(COc2ccc(Cl)cc2)o1)N1CCCCC1
 : -0.91	1.06
> Cc1cccc(NC(=O)C(CCS(C)(=O)=O)N2Cc3ccccc3C2=O)n1 (stereo not drawn)
 : nt	1.24
> COc1cc(-c2nc3cnccn3c2Nc2ccc(Cl)cc2)ccc1O
 : -0.99	0.24
> Cc1cc(NC(=O)Cc2nn(C)c(=O)c3ccccc23)no1
 : -1.01	-1.72
> Cc1ccc2c(c1)-c1cc(C)nn1C(c1ccc(N3CCOCC3)cc1)N2 (stereo not drawn)
 : -1.48	1.45
> CC(=O)Nc1ccc(S(=O)(=O)NC23CC4CC(CC(C4)C2)C3)cc1
 : -1.59	nt
> CC1CCCC(NC(=O)CN(C)S(=O)(=O)c2ccc3c(c2)c(=O)n(C)c(=O)n3C)C1C (stereo not drawn)
 : -1.97	-1.84
> Cc1ccc2ncc(C(=O)NCc3ccc4c(c3)OCO4)c(=O)n2c1
 : -2.34	-1.02
> O=C(CN1C(=O)CSC1=O)Nc1ccc(F)cc1
 : 1.45	0.12
> CC1CCN(c2nc3ccc(C(=O)c4ccccc4)cc3n3cnnc23)CC1
 : nt	-1.39
> COC(=O)c1sc(NC(=O)c2cccs2)nc1C
 : -0.92	2.35
> CCCCN(C)C(=O)C(NS(=O)(=O)c1ccc2c(c1)CCC(=O)N2)c1ccccc1 (stereo not drawn)
 : -1.13	nt
> Cc1oc(-c2ccc(Cl)cc2)cc1COC(=O)Nc1ccccc1
 : -1.16	nt
> CN1C2CCC1/C(=C\c1ccc(F)cc1)C(=O)/C2=C/c1ccc(F)cc1
 : -1.18	nt
> COC(=O)c1sccc1S(=O)(=O)N1CCCCC1
 : nt	0.89
> O=[N+]([O-])c1cc(Cl)ccc1Sc1ccccn1
 : 1.45	nt
> CCC(=O)Nc1ccc2nc(SCc3cc(=O)c4cc(Cl)ccc4[nH]3)sc2c1
 : nt	1.71
> CN(C)c1nc(Oc2ccc(=O)[nH]n2)nc(N2CCOCC2)n1
 : 0.31	0.22

The results go on:
Sequence of screens – CDC25B-CDK2 inh	HIV TAR-Tat
> c1ccc(-c2noc(N3CCCC3)n2)cc1
 : nt	1.89
> CCC(Cc1ccccc1)Nc1nn2nnnc2c2ccccc12 (stereo not drawn)
 : -2.77	0.64
> O=c1[nH]c2ccc(NCc3ccc(-c4ccc(Br)cc4)o3)cc2[nH]1
 : -0.53	-0.65
> CSc1ccc(CCNC(=O)c2ccc(CN3CC(=O)N4CSCC4C3=O)cc2)cc1 (stereo not drawn)
 : nt	1.47
> COc1cc(OC)cc(-c2nc(C(N)=O)c3[nH]c(=O)n(-c4ccc(F)cc4)c3n2)c1
 : nt	0.72
> COC(=O)c1ccc(C2C3=C(CC(C)(C)CC3=O)N(Cc3cccnc3)C3=C2C(=O)CC(C)(C)C3)cc1
 : 1.09	0.24
> Cc1nn(C(=O)c2cccs2)c(C)c1Cc1c(F)cccc1Cl
 : -2.93	nt
> Cc1cc2c3c([nH]c2cc1S(=O)(=O)Nc1ccc(Br)cc1F)CCCC3=O
 : nt	1.74
> O=C(O)c1ccc2c(c1)C(=O)N(CCCCO)C2=O
 : -0.87	nt
> COc1ccc(C2NC(=O)NC(O)(C(F)(F)F)C2C(=O)c2ccc(Br)cc2)cc1 (stereo not drawn)
 : 0.1	nt
> Cc1cc(=O)n2[nH]c(Cc3cccc(F)c3)nc2n1
 : 1.57	0.41
> CC1CCN(C(=O)C2CCC(Cn3c(=O)c4sccc4n(CC(N)=O)c3=O)CC2)CC1 (stereo not drawn)
 : nt	0.63
> CCCc1cc(C(=S)NC2c3ccccc3Oc3ccccc32)ccn1
 : 0.68	nt
> COC(=O)c1cc(OC)c(OC)cc1NC(=O)c1ccccc1C(=O)O
 : 0.85	nt
> Cc1cc(NC(=O)CSc2ccccn2)no1
 : -0.96	1.71
> CN(C)c1ccc(CNS(=O)(=O)c2ccc3c(c2)C(C)(C)C(=O)N3)cc1
 : nt	-2.06
> Clc1ccc(CCNc2nc3ccccc3c3nc(-c4cccnc4)nn23)cc1
 : -0.75	0.46
> CC(C)(COC(=O)Nc1ccc(Cl)cc1)n1cccc1
 : -0.58	nt
> O=C(NC1CCCCC1)c1nnc(CS(=O)(=O)c2ccccc2)o1
 : -0.89	0.46
> O=C1CCCc2cc(S(=O)(=O)NCC3CCN(Cc4ccco4)CC3)ccc2N1
 : nt	0.62
> COc1ccc2cc3c(nc2c1)N(C(=O)c1cccs1)CC3
 : -1.25	-1.03
> O=C(Nc1ccccc1Cl)N1CCSc2ccccc21
 : nt	0.71
> CC(=O)N1N=C(c2cccc(Br)c2)OC1c1cc(C)nc2ccccc12 (stereo not drawn)
 : nt	0.66
> CN(CC(=O)N1CCN(Cc2ccc3c(c2)OCO3)CC1)c1nnc(N2CCCC2=O)s1
 : nt	-0.52
> CC(C)CC(C(=O)Nc1ccc2c(c1)OCO2)N1Cc2ccccc2C1=O (stereo not drawn)
 : nt	0.5
